Screening results as filed in PubChem.
2A StopGo: High Throughput Screening for Foot and Mouth Disease Virus Antivirals. Potency, µM (top dose mostly 57.9 µM), inactives show top-dose signal change, negative = less light. 410,000 compounds, 1.2% hits. human cells with a luciferase reporter of 2A StopGo recoding; control for the full effect not named in the record. AID 1159524, 2015; active = well fitted falling curve with a large enough effect; inconclusive = small, poorly fitted or top-dose-only effect; inactive = no such curve, though single readings can be large or run the other way; tested in HEK293T cells; further: on the % scale 0 is the no-effect control and ±100 the full control effect; nearly all actives have a fitted effect of over 45% in size; luciferase light after 4 h
MARV entry inh: qHTS for inhibitors of binding or entry into cells for Marburg Virus | 300,000 compounds, 1.8% hits | Marburg virus pseudotyped entry inhibition, cell reporter; control for the full effect not named in the record; about a third of the inactives were read at about 46 µM | Potency, µM (series often up to 37.8 µM), for inactives: at the highest dose activity change, negative = inhibition, usual class: inhibitors | AID 540276, 2011; active = well fitted inhibition curve with a large enough effect; inconclusive = small, poorly fitted or top-dose-only effect, or effect the other way; inactive = flat fitted curve, though single readings scatter; tested in HEK293 cells; about a fifth of its hits are not listed in these tables; further: on the % scale 0 is the no-effect control and ±100 the full control effect; luciferase read-out
Cruzain inh noDet: qHTS Assay for Promiscuous and Specific Inhibitors of Cruzain (without detergent); Cruzipain (Trypanosoma cruzi), P25779; purified cruzain, Z-FR-AMC fluorescence, no detergent; Potency, µM, for the others: max response, negative = inhibition, usual class: inhibitors; 200,000 compounds, 2.3% hits; active means well fitted curve in the direction sought with a large enough effect; inconclusive means small, poorly fitted or top-dose-only effect, or another doubt; inactive means no such curve, though single readings can be large; an effect the other way counts as inactive or inconclusive;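 further: plate controls were enzyme without inhibitor for no effect and buffer without enzyme for full effect; nearly all actives have a fitted effect of over 40% in size; top concentration of the series not given in the record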
Target sequence (P25779 123-467 limits assumed): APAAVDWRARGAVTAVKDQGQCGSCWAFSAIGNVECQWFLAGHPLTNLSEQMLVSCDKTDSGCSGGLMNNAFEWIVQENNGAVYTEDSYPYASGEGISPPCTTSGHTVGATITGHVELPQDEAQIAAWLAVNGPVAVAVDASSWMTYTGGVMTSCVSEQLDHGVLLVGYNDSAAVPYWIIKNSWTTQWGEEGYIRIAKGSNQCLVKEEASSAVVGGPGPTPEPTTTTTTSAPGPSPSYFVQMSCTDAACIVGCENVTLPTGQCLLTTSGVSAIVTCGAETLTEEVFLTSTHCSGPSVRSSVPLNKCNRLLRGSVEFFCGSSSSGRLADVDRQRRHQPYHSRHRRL
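Detergent-free condition (0.00005% Triton X-100) in acetate buffer pH 5.5 with DTT. 1.5 nM enzyme and compound were pre-mixed 15 min, then 2 uM Z-FR-AMC substrate added; reaction progress from fluorescence change between first and third reads (60 s).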
SARS PLpro yeast: qHTS of Yeast-based Assay for SARS-CoV PLP | S. cerevisiae expressing SARS-CoV PLpro, growth rescue; control for the full effect not named in the record | Potency, µM (highest dose often 32.9 µM), for the others: top-dose activity, positive = growth rescue | 330,000 compounds, 0.19% hits | AID 485353, 2010; further: 0% is about no effect; nearly all actives have a fitted effect of over 55% in size; growth read by luminescence after 48 h
LASV entry inh: qHTS for Inhibitors of binding or entry into cells for Lassa Virus. Lassa virus pseudotype entry inhibition, cell reporter; control for the full effect not named in the record. Potency, µM (series often up to 37.9 µM), for the others: at the highest dose activity change, negative = inhibition, actives largely listed as inhibitors. 300,000 compounds, 1.2% hits; active means well fitted inhibition curve with a large enough effect; inconclusive means small, poorly fitted or top-dose-only effect, or effect the other way; inactive means flat fitted curve, though single readings scatter; tested in HEK293 cells; further: on the % scale 0 is the no-effect control and ±100 the full control effect; nearly all actives have a fitted effect of over 50% in size; luciferase read-out
RE007 growth inh: qHTS Assay for Inhibitors of the HIV-1 protein Vpr; S. pombe RE007 Vpr strain, BacTiter-Glo ATP luminescence, 24 h; control for the full effect not named in the record; Potency, µM (titrated, usually from 92.2 µM), inactives show top-dose activity change, negative = less growth; 360,000 compounds, 0.21% hits; active = well fitted falling curve with a large enough effect; inconclusive = small, poorly fitted or top-dose-only effect; inactive = no such curve, though single readings can be large or run the other way;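 further: on the % scale 0 is the no-effect control and ±100 the full control effect; nearly all actives have a fitted effect of over 50% in size; the assay follows cell death caused by Vpr and the record does not say whether a fall means rescue or toxicity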
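Fission yeast RE007 carrying one integrated HIV-1 vpr copy, seeded at OD 0.01 in PMG+AL medium with 23 nL pinned compound. Grown 24 h at 30 degrees; viability read by BacTiter-Glo luminescence after 5 min.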
NS1 function inh: qHTS Assay for Inhibitors of Influenza NS1 Protein Function; S. cerevisiae slowed by influenza A NS1, growth recovery by OD600; Potency, µM (doses to about 46.1 µM), for inactives: at the highest dose activity, positive = more growth; 270,000 compounds, 0.4% hits; AID 2326, 2010; further: actives are rising curves; nearly all actives have a fitted effect of over 50% in size
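Compounds were scored for reversing the slow growth caused by influenza A NS1 in S. cerevisiae, measured by optical density at 600 nm. Assay medium contained 2% galactose at pH 6.0; NS1-free yeast of the same strain were the positive control.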
Cruzain Triton: qHTS Assay for Promiscuous and Specific Inhibitors of Cruzain (with detergent); 200,000 compounds, 0.43% hits; Cruzipain (Trypanosoma cruzi), P25779; Potency, µM, inactives show max response, negative = inhibition, hits mostly inhibitors; purified cruzain, Z-FR-AMC fluorescence, 0.01% Triton; active means well fitted curve in the direction sought with a large enough effect; inconclusive means small, poorly fitted or top-dose-only effect, or another doubt; inactive means no such curve, though single readings can be large; an effect the other way counts as inactive or inconclusive;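 further: plate controls were neutral wells for no effect and buffer without enzyme for full effect; nearly all actives have a fitted effect of over 40% in size; top concentration of the series not given in the record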
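Z-FR-AMC hydrolysis (2 uM substrate) by cruzain (1.5 nM) monitored kinetically at ex 360/em 450 nm after 15 min room-temperature compound exposure; 0.01% Triton X-100, pH 5.5, 5 mM DTT.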
Starred values were filed as active, the others as inactive; & = joins results of further samples; [ ] = remark or other dose. Unless noted, the call rests on the fitted dose curve; in most records, active means well fitted rising curve with a large enough effect; inconclusive means small, poorly fitted or top-dose-only effect; inactive means no such curve, though single readings can be large or run the other way. Potency means the concentration at half of the fitted maximal effect.

CCOC(=O)C1(Cc2ccccc2C)CCCN(C(=O)c2sccc2C)C1 (stereo not given) was read as 2A StopGo 14.8%, SARS PLpro yeast -1.3%, RE007 growth inh -2.1% and NS1 function inh -14.0%.
O=C(OCC(=O)N(CCc1ccccc1)Cc1ccccc1)c1ccccc1[N+](=O)[O-] was read as 2A StopGo 21.2%, MARV entry inh -10.6%, SARS PLpro yeast 3.4%, LASV entry inh 6.9%[46.1 µM] and RE007 growth inh -3.0%.
`COc1cc(Nc2nc3c(S(=O)(=O)c4cccc(Cl)c4)nnn3c3ccsc23)cc(OC)c1` gave 2A StopGo inconclusive, Cruzain inh noDet 4.6%, LASV entry inh 13.0%[46.1 µM] and Cruzain Triton 2.3%.
`O=C(C1CCN(C2CCN(Cc3cccc4c3OCO4)CC2)CC1)N1CCOCC1` gave 2A StopGo -4.6%, MARV entry inh -0.2%[46.1 µM], SARS PLpro yeast 1.0%, LASV entry inh -4.7%[46.1 µM], RE007 growth inh 2.5% and NS1 function inh 5.8%.
CC(=O)COc1ccc2c3c(c(=O)oc2c1C)CCCCC3 was read as 2A StopGo 47.2%[activator], MARV entry inh inconclusive, Cruzain inh noDet -7.7%, SARS PLpro yeast -2.1%, LASV entry inh inconclusive, RE007 growth inh -7.8%, NS1 function inh -2.1% and Cruzain Triton -19.0%.
Screening CS(=O)(=O)N1CCN(c2ccc([N+](=O)[O-])c3cccnc23)CC1 returned 2A StopGo 4.1%, MARV entry inh -6.2%[46.1 µM], SARS PLpro yeast -0.4%, LASV entry inh -14.0%[46.1 µM], RE007 growth inh 14.1% and NS1 function inh -1.4%.
Screening CCOc1ccc(N2C(=O)NC(=O)/C(=C\c3ccccc3[N+](=O)[O-])C2=O)cc1 returned 2A StopGo -24.1%, SARS PLpro yeast 0.5%, RE007 growth inh -25.4% and NS1 function inh 1.6%.
`CCCCC(NC(C)=O)c1nc2ccccc2n1CCCC` (stereo not given) gave 2A StopGo inconclusive, MARV entry inh inconclusive, Cruzain inh noDet 12.3%, SARS PLpro yeast -2.0%, LASV entry inh -17.6%, RE007 growth inh 10.6%, NS1 function inh -7.7% and Cruzain Triton 3.2%.
`COC(=O)C(CO)NC(=O)C1CCCN1C(=O)CNC(=O)OCc1ccccc1` (stereo not given) gave 2A StopGo 6.5%, SARS PLpro yeast 2.6%, RE007 growth inh 4.3% and NS1 function inh 2.6%.
`Cc1ccc(CNS(=O)(=O)c2ccc3c(c2)CCN3C(=O)C2CCC2)cc1` gave 2A StopGo -5.1%, SARS PLpro yeast -2.1%, RE007 growth inh -9.7% and NS1 function inh -4.8%.
CCc1ccc(NC(=S)NC2CC3CCCC(C2)N3Cc2ccccc2)cc1 (stereo not given) was read as 2A StopGo -14.8%, MARV entry inh 10.3µM*, SARS PLpro yeast 0.5%, LASV entry inh inconclusive, RE007 growth inh 0.3% and NS1 function inh 8.3%.
For CCCOc1ccc(C(=O)O/N=C(\CC)c2ccc(C)cc2)cc1 the results were 2A StopGo -19.6%, MARV entry inh inconclusive, Cruzain inh noDet -3.0%, SARS PLpro yeast -52.4%, LASV entry inh 0.1%, RE007 growth inh 23.2%, NS1 function inh -6.3% and Cruzain Triton -3.1%.
CN(Cc1ccccc1)c1ncnc2[nH]ncc12 was read as 2A StopGo -28.5%, MARV entry inh -4.4%[46.1 µM], LASV entry inh inconclusive and RE007 growth inh -9.6%.
Cc1noc(C)c1COc1ccc(C(=O)Nc2ccccn2)cc1 was read as 2A StopGo 9.8%, MARV entry inh -3.3%[46.1 µM], SARS PLpro yeast -4.3%, LASV entry inh 10.1%[46.1 µM], RE007 growth inh -20.1% and NS1 function inh -25.6%.
CC(=O)NNC(=O)c1[nH]c2ccc(Br)cc2c1-c1ccccc1 was read as 2A StopGo 7.5%, SARS PLpro yeast 0.2%, RE007 growth inh 1.5% and NS1 function inh 1.2%.
For O=C(CSc1nc(-c2ccc(F)cc2)nc2c1Cc1ccccc1O2)Nc1cccc(C(=O)O)c1 the results were 2A StopGo -8.3%&-11.0%, MARV entry inh -2.3%&-18.0%&-2.3%[46.1 µM], Cruzain inh noDet -2.4%, SARS PLpro yeast 1.3%, LASV entry inh 26.0%&3.0%[46.1 µM], RE007 growth inh -5.9% and Cruzain Triton -4.4%.
`O=C(Nn1cnnc1)c1cc(Br)ccc1Cl` gave 2A StopGo 2.5%, SARS PLpro yeast 2.1%, RE007 growth inh 6.7% and NS1 function inh 26.5%.
For CCOC(=O)c1oc2cc(O)ccc2c(=O)c1-c1ccccc1OC the results were 2A StopGo -28.4%, MARV entry inh 6.4%, Cruzain inh noDet 7.3%, SARS PLpro yeast -7.3%, LASV entry inh 14.2%, RE007 growth inh 3.9%, NS1 function inh -35.1% and Cruzain Triton -3.0%.
COc1cccc(CNC(=O)N2CCC(CN3CCC(C)CC3)CC2)c1 was read as 2A StopGo -11.1%, Cruzain inh noDet 10.1%, LASV entry inh -4.7%[46.1 µM] and Cruzain Triton 2.4%.
CCc1ccccc1NC(=O)C1CCC(CNS(=O)(=O)c2ccc3c(c2)CC(C)N3C(C)=O)CC1 (stereo not given) was read as 2A StopGo inconclusive, Cruzain inh noDet 8.3%, LASV entry inh -1.7%[46.1 µM] and Cruzain Triton 3.8%.
For CN(C)c1ccc(CNC(=O)C2CCN(Cc3cc4ccccc4n3Cc3ccccc3)CC2)cc1 the results were 2A StopGo -19.5%, Cruzain inh noDet -7.8%, LASV entry inh inconclusive and Cruzain Triton -6.7%.
For COc1ccc(C(=O)C2CCCN(Cc3ccc(NC(C)=O)cc3)C2)cc1OC (stereo not given) the results were 2A StopGo -8.6%, SARS PLpro yeast 1.4%, RE007 growth inh -7.3% and NS1 function inh -8.1%.
For C=CCc1cccc(/C=N/n2cnnc2)c1O the results were 2A StopGo -7.1%, MARV entry inh 37.5%, Cruzain inh noDet 4.5%, SARS PLpro yeast -7.4%, LASV entry inh 3.6%, RE007 growth inh -19.5%, NS1 function inh -23.5% and Cruzain Triton -11.2%.
`O=C(Nc1ccc(Cl)cc1F)c1cccc2ccccc12` gave 2A StopGo 23.3%, MARV entry inh -0.7%[46.1 µM], SARS PLpro yeast inconclusive, LASV entry inh -9.0%[46.1 µM], RE007 growth inh -16.4% and NS1 function inh -10.1%.
`CCOc1ccc(S(=O)(=O)/N=C(/Nc2ccc(OC)cc2)c2ccccc2)cc1` gave 2A StopGo 88.8%[activator], MARV entry inh -3.0%, SARS PLpro yeast 2.5%, LASV entry inh inconclusive, RE007 growth inh 5.1% and NS1 function inh -10.2%.
`O=C1Oc2ccccc2C(=O)/C1=C\N1CCN(c2ccccc2)CC1` gave 2A StopGo -19.1%, MARV entry inh -12.7%[46.1 µM], SARS PLpro yeast 6.7%, LASV entry inh -10.8% and RE007 growth inh -13.9%.
Screening O=[N+]([O-])c1ccc2c(c1)N([O-])C1(CCCCC1)[N+]2=O returned 2A StopGo -21.3%, MARV entry inh -10.0%[46.1 µM], SARS PLpro yeast 0.1%, LASV entry inh 3.8%, RE007 growth inh 5.3% and NS1 function inh 10.8%.
`CC1CCN(Cc2nnnn2CCCC(=O)NCC(C)(C)N2CCOCC2)CC1` gave 2A StopGo -23.1%, SARS PLpro yeast inconclusive, RE007 growth inh -1.6% and NS1 function inh -0.5%.
`CCN1CCCC1CNC(=O)CSc1cc(=O)n(CC)c2ccccc12` (stereo not given) gave 2A StopGo 1.8%, MARV entry inh -15.0%, Cruzain inh noDet -4.8%, SARS PLpro yeast 1.3%, LASV entry inh -0.7%, RE007 growth inh 3.8%, NS1 function inh -16.1% and Cruzain Triton -0.7%.
Screening CC1CCN(C(NC(=O)c2ccco2)C(=O)c2ccccc2)CC1 (stereo not given) returned 2A StopGo 6.1%, MARV entry inh 1.2%, Cruzain inh noDet 9.0%, SARS PLpro yeast -3.8%, LASV entry inh inconclusive, RE007 growth inh 9.2%, NS1 function inh 22.5% and Cruzain Triton 2.2%.
`O=C(NC(=S)Nc1ccc(C(F)(F)F)cc1)c1csnn1` gave 2A StopGo -20.7%, MARV entry inh 10.8%[46.1 µM], SARS PLpro yeast -1.8%, LASV entry inh -1.6% and RE007 growth inh -11.3%.
Cn1nc(-c2ccc(Cl)cc2)c2cc(C(=O)N3CCN(c4ccccn4)CC3)sc21 was read as 2A StopGo inconclusive, MARV entry inh -1.8%, Cruzain inh noDet 0.7%, SARS PLpro yeast 2.3%, RE007 growth inh -13.8%, NS1 function inh -67.8% and Cruzain Triton -4.0%.
`COC(=O)/C=C/c1ccccc1S(=O)(=O)N(Cc1ccccc1)Cc1ccco1` gave 2A StopGo -10.0%, SARS PLpro yeast -1.3%, RE007 growth inh 9.8% and NS1 function inh 3.4%.
Screening CCN(CC)CCN(CC(=O)N(C1CCCCC1)C1CCCCC1)C(=O)c1ccco1 returned 2A StopGo -26.5%, MARV entry inh inconclusive, SARS PLpro yeast -0.8%, LASV entry inh -23.3% and RE007 growth inh -0.7%.
`CCOc1ccc(NC(=O)Cn2cncc2-c2ccc([N+](=O)[O-])cc2)cc1` gave 2A StopGo -4.0%, MARV entry inh inconclusive, Cruzain inh noDet 6.9%, SARS PLpro yeast 27.8%, LASV entry inh -23.9%, RE007 growth inh -9.8%, NS1 function inh -3.7% and Cruzain Triton -5.9%.
Screening N#Cc1ccccc1OCC(=O)N(C1CCCCC1)C1CCS(=O)(=O)C1 (stereo not given) returned 2A StopGo -22.0%, MARV entry inh -5.0%, SARS PLpro yeast -5.7%, LASV entry inh -9.8% and RE007 growth inh 1.4%.
`CCOc1ccc2oc(=O)cc(CN3CCN(C(=O)c4ccc(Cl)cc4)CC3)c2c1` gave 2A StopGo -20.9%, MARV entry inh 5.8%[46.1 µM], Cruzain inh noDet 4.6%, LASV entry inh 10.2%[46.1 µM] and Cruzain Triton -4.5%.
